High-throughput results deposited in PubChem BioAssay by National Center for Advancing Translational Sciences (NCATS).
VACV Venus inh – qHTS for Stage-Specific Inhibitors of Vaccinia Orthopoxvirus: Venus Reporter Primary qHTS; Vaccinia virus Venus reporter expression, fluorescence; Potency, µM (series often up to 36.5 µM), without a hit: top-dose activity change, negative = inhibition, most hits filed as inhibitors; 0.46% of 330,000 active; AID 720580, 2013; active means well fitted inhibition curve with a large enough effect; inconclusive means small, poorly fitted or top-dose-only effect; inactive means no such curve, though single readings can be large or run the other way; tested in A549 cells; also: nearly all actives have a fitted effect of over 30% in size; inactives centre near -10
Vaccinia mCherry – qHTS for Stage-Specific Inhibitors of Vaccinia Orthopoxvirus: mCherry Reporter Primary qHTS. Potency, µM (doses to about 36.5 µM), inactives show top-dose activity change, negative = inhibition, actives largely listed as inhibitors. 0.63% of 310,000 active. AID 720579, 2013. Vaccinia virus mCherry reporter infection, fluorescence; about a quarter of the inactives have no number; active = well fitted inhibition curve with a large enough effect; inconclusive = small, poorly fitted or top-dose-only effect; inactive = no such curve, though single readings can be large or run the other way; tested in A549 cells; also: nearly all actives have a fitted effect of over 35% in size; inactives centre near -10
* marks the source's active call; other numbers are inactive results; i = inactive; u = inconclusive; x = no result given; & = joins results of further samples; [ ] = remark or other dose. % is scaled to controls: 0 for no effect and ±100 for the full control effect; potency is read from the fitted curve at half-maximal effect.

SMILES	VACV Venus inh	Vaccinia mCherry
CCOC(=O)c1ccc(NC(=O)CN(Cc2ccc(C)cc2)S(=O)(=O)c2ccc(C)cc2)cc1	-13%	-10%
Cc1ccc(S(=O)(=O)N2CCN(C(=O)C3COc4ccccc4O3)CC2)cc1C (configuration not stated)	-17%	i
Cn1cnnc1SCc1cccc(Br)c1	-2%	-10%
O=C(CNS(=O)(=O)c1ccccc1)N1CCc2ccccc2C1	-8%	-13%
Cc1ccc(NC(=O)N(Cc2ccc3c(c2)OCO3)C2CCN(Cc3ccccc3)CC2)cc1C	-26%	-29%
CCOC(=O)c1oc2ccccc2c1NC(=O)C(C)(C)C	-3%	i
Cc1cccc(NC(=O)c2ccc(C(=O)Nc3cccc(C)c3C)cc2)c1C	8%	10%
O=C(CSc1nc2c([nH]c3ccccc32)c(=O)n1-c1ccccc1)Nc1ccc(Cl)c(Cl)c1	-19%	-7%
CCOc1cccc2sc(N(CCN(C)C)C(=O)c3ccc4c(c3)OCCO4)nc12	-10%	-6%
COc1ccccc1/C=C/C(=O)OCC(=O)NNC(=O)c1ccccc1	-9%	-18%
CCC(C)C(=O)Nc1nc(C)c(-c2csc(Nc3cc(Cl)ccc3OC)n2)s1 (configuration not stated)	-22%	-19%
CC(=O)c1cccc(NC(=O)/C(=C\c2cccnc2)NC(=O)c2ccc(C)cc2)c1	-10%	-15%
Cc1ccc(-n2cc(C(=O)OCc3ccc(Cl)cc3)c3ccccc3c2=O)cc1	-28%	-21%
CCOC(=O)c1c(NC(=O)CSc2nc3ccccc3o2)sc(C)c1C	-10%	-12%
Cc1cc2nc(-c3ccc[nH]c3=O)[nH]c2cc1C	-22%	-4%
CS(=O)(=O)N1CCN(c2ccccc2NC(=O)CSc2ccc(Cl)cc2)CC1	-29%	i
CCN(Cc1cnn(C)c1)C(=O)c1cc(COc2cc(C)c(Cl)c(C)c2)on1	-10%	i
O=C(Nc1ccc2c(c1)OCCO2)C1CC1c1ccccc1 (configuration not stated)	-11%	i
Cc1cccc(NC(=O)c2nc(-c3ccccc3)n(-c3ccccc3)n2)c1C	u	x
CN(C)/C=N/c1nccc(-c2cccs2)n1	-12%	-10%
O=C(/C=C/c1cccnc1)c1cccc(O)c1	-8%	-9%
CC1/C(=C\c2ccc(Cl)cc2)C(=O)C2CC1C2(C)C (configuration not stated)	-3%	-10%
O=C(Nc1cccc(S(=O)(=O)N2CCCCC2)c1)c1ccc(N2CCCC2=O)cc1	-6%	-10%
CC(C)CCCCCCCCCCCCC(=O)NCC(=O)NC1C(O)C(O)C(Nc2ncnc3nc[nH]c23)OC1C(O)CO (configuration not stated)	11µM*	40µM*
O=C(CNC(=O)c1ccc2c(c1)OCO2)N/N=C(Br)/C=C/c1ccccc1	-29%	u
CCOC(=O)c1c(C)[nH]c(=S)c(C#N)c1-c1ccccc1	-9%	-14%
Cc1cc(C)cc(NC(=O)CN2CCN(C(=O)c3cccs3)CC2)c1	-11%	i
O=C(NCc1ccco1)c1cccc2c1C(=O)c1ccc(N3CCC(N4CCCCC4)CC3)cc1S2(=O)=O	-8%	-8%
NC(=O)COC(=O)c1cc(=O)[nH]c2ccc(S(=O)(=O)Nc3ccc(F)cc3)cc12	-10%	-11%
NC(CCc1ccccc1)c1csc(Nc2ccccn2)n1 (configuration not stated)	u	-24%
CC(/C=C/c1ccc(N(C)C)cc1)=N\N=C(/N)SC1CC(=O)N(c2ccc(C(=O)O)cc2)C1=O (configuration not stated)	-15%	u
CCN(CC)CCCN(C)C(=O)Cn1nc(Cc2ccncc2)c2ccccc2c1=O	-9%	i
CCc1ccccc1NC(=O)c1cnc2n(c1=O)CCS2	-1%	-17%
O=C(Nc1ccc(N2CCOCC2)cc1)C1CCN(S(=O)(=O)c2ccc3c(c2)OCCO3)CC1	-19%	i
O=C(CSc1ccc(F)cc1)Nc1ccc(Br)cc1	-30%	-7%
C=Cn1ccnc1P(=S)(c1nccn1C=C)C1CCCCC1	-20%	-7%
CCC(C)(C)n1nnnc1C(c1ccccc1)N1CCN(C2CCCC2)CC1 (configuration not stated)	-5%	-4%
O=C(O)CSc1nnc(-c2ccc(Cl)cc2Cl)n1-c1ccccc1	-8%	-6%
CCOC1CCCc2oc(-c3ccsc3)c(-c3cnc(OC)nc3)c21 (configuration not stated)	1%	12%
CCc1nc2ccc(C(=O)NCCOc3ccc(OC)cc3)cn2c1N(C)C(=O)Cc1ccccc1	6%	54%[activator]
COc1cc(C=O)ccc1Oc1nnnn1-c1ccc(C(N)=O)cc1	-2%	-6%
O=C(COc1ccc(Br)cc1Br)NNC(=O)c1cccs1	-1%	6%
c1cncc(Nc2c3ccccc3nc3ccccc23)c1	u	-25%
CC(C)N(C)CCOC(=O)c1ccccc1Cl	-2%	-11%
COc1ccc(CN(Cc2nc3ccccc3c(=O)[nH]2)C(=O)c2ccco2)cc1	-11%	-15%
O=C(O)C1=CC2C=C(Cl)C=CC2OC1=O (configuration not stated)	-22%	-10%
Cc1nc(C)c(C(=O)O)c(-c2cccs2)c1C(=O)O	-2%	-7%
O=C(Cn1c(=O)c2cccn2c2cccnc21)N1CCN(c2ccccc2F)CC1	-13%[7.34 µM]	-24%[7.34 µM]
O=C(Nc1cccc2cccnc12)c1cccc2ccccc12	-1%&-5%	-3%&-14%
Cc1cccc(-c2noc(-c3ccc(N4CCN(C)CC4)c([N+](=O)[O-])c3)n2)c1	-10%	-19%
COc1ccc2[nH]c(C)c(C(=O)CNc3nccs3)c2c1	u	u
COc1ccccc1C1CN(Cc2c(O)cccc2OC)Cc2ccccc2O1 (configuration not stated)	-15%	i
Oc1ccccc1-[n+]1c(-c2ccccc2)cc(-c2ccccc2)cc1-c1ccccc1	2%	-6%
Cc1cccc(/C=N/NC(=O)c2cccc([N+](=O)[O-])c2)n1	-16%	-4%
CCOc1ccc(Cl)cc1-c1cc(C(=O)Nc2ccc(C(C)C)cc2)[nH]n1	-26%	-30%
Cc1ccc(S(=O)(=O)N(C)C[C@@H]2Oc3c(NS(C)(=O)=O)cccc3C(=O)N([C@H](C)CO)C[C@@H]2C)cc1	-23%	-19%
COC(=O)[C@@]1(Cc2ccc(F)cc2)[C@H]2c3cc(C(=O)N(C)C)n(CCSCCO)c3C[C@H]2CN1C(=O)c1ccccc1	-27%	-10%
CCn1c(-c2ccc(C)cc2)n[nH]c1=S	-18%	-26%
CC1(C(=O)Nc2ccc3c(c2)OCCO3)CCN1Cc1ccc2ccccc2c1 (configuration not stated)	-1%	16%
O=C(O)c1ccc(COc2ccc([N+](=O)[O-])cc2Cl)cc1	-4%	-13%

Compound profiles, as listed above. Order of screens: VACV Venus inh | Vaccinia mCherry
`CCc1ccccc1NC(=O)c1cnc2n(c1=O)CCS2` is listed as -1% | -17%
`Cc1cc2nc(-c3ccc[nH]c3=O)[nH]c2cc1C` is listed as -22% | -4%

Next section:
SMILES	VACV Venus inh	Vaccinia mCherry
CCc1cc(Br)ccc1N1C(=O)C2CC=CCC2C1=O (configuration not stated)	-24%	x
Cc1cccc(CCNC(=O)Cn2ncc3c(=O)oc4ccccc4c32)c1	4%	-8%
Cc1oc2nc(SCCCC(=O)NCCCO)nc(N)c2c1C	-18%	i
CCN(CC)S(=O)(=O)c1ccc(N2CCOCC2)c(NC(=O)c2ccccc2F)c1	5%	i
Cc1cc(C(=O)N/N=C/c2c(C)[nH]n(-c3ccccc3)c2=O)n[nH]1	-7%	-22%
COCCNC(=O)c1c(NC(=O)Cc2coc3cc(C)ccc23)sc2c1CCCC2	-12%	-12%
CN(Cc1ccccc1)C(=O)[C@@H]1CCCN1C(=O)OC(C)(C)C	3%	-2%
O=C(Nc1cccc(Br)c1)Nc1nc2c(s1)CCCCCC2	-16%	-21%
COc1cc2oc(=O)c3c(c2cc1OCC(=O)c1c(C)n(C)c2ccccc12)CCCC3	-11%	-12%
COc1ccc(NC2CCCN(C(=O)CCN3CCCC3=O)C2)cc1 (configuration not stated)	-2%	-9%
CCOC(=O)Cc1csc(NC(=O)COc2ccc3c(c2)CCC3)n1	-5%	-13%
O=C(CCNS(=O)(=O)c1ccccc1F)N1CCN(S(=O)(=O)c2cccc(F)c2)CC1	-7%	-16%
Cc1csc(CN(C)C(=O)C2CCC(=O)N(Cc3ccc(Cl)cc3)C2)n1 (configuration not stated)	-7%	i
COCc1ccc(CN2CCC(Oc3ccc(C(=O)NCc4ccccn4)cc3)CC2)o1	-10%	i
COc1ccc(CCNC(=O)CN2C(=O)COc3ccc(S(=O)(=O)N4CCOCC4)cc32)c(OC)c1	-6%	-6%
CC(C)CSc1n[nH]c(N)n1	-6%	i
O=C(O)CN1C(=O)C2C3CC(C2C1=O)C1C(c2ccc(Cl)cc2)c2sc(=O)[nH]c2SC31 (configuration not stated)	-8%	i
Cc1cc(Br)ccc1OCCCCN1CCCCC1	-10%	i
CCOc1cc(N2CCOCC2)c(OCC)cc1NC(=O)CSc1ncccc1C(=O)O	5%	u
C#CCCOC(=O)Nc1ccccc1	-10%	i
CC(NS(=O)(=O)c1ccc(Cl)c(Cl)c1)C(=O)OCC(=O)Nc1ccc2c(c1)OCO2 (configuration not stated)	11%	-9%
COc1ccc(CN2CCN(Cc3ccccc3F)CC2)c(OC)c1	-3%	-15%
COc1ccccc1C(=O)N1CCN(Cc2cccnc2)CC1	-2%	-9%
CC1CCN(S(=O)(=O)c2ccc3nc(-c4cccnc4)cc(C(=O)NCCCOC(C)C)c3c2)CC1	-7%	-3%
COc1ccc(N2CCN(C(=O)c3ccc(CS(=O)Cc4ccc(C)cc4)o3)CC2)cc1 (configuration not stated)	-22%	-19%
Nc1ncnc(NCc2ccccc2)c1[N+](=O)[O-]	-26%	-7%
N#Cc1ccccc1NC(=O)c1cc2c(=O)n3ccccc3nc2s1	-9%	-8%
CC(C)CNC(=O)NC(=O)COc1ccc(C=O)cc1	-9%	-14%
CCOC(=O)c1c(-c2cccs2)csc1NC(=O)CN1CC(C)OC(C)C1 (configuration not stated)	-25%	-20%
COc1ccc(OCC(=O)NC2CC(=O)N(c3ccc4c(c3)OCCO4)C2)cc1 (configuration not stated)	3%	-7%

Some of these compounds in order of formula weight, rising.
SMILES	VACV Venus inh	Vaccinia mCherry
CN(Cc1ccccc1)C(=O)[C@@H]1CCCN1C(=O)OC(C)(C)C	3%	-2%
Cc1cc(C(=O)N/N=C/c2c(C)[nH]n(-c3ccccc3)c2=O)n[nH]1	-7%	-22%
CC(NS(=O)(=O)c1ccc(Cl)c(Cl)c1)C(=O)OCC(=O)Nc1ccc2c(c1)OCO2 (configuration not stated)	11%	-9%

Reformatted field by field: entries from further up.
CCOC(=O)c1c(NC(=O)CSc2nc3ccccc3o2)sc(C)c1C
  VACV Venus inh: -10%	Vaccinia mCherry: -12%

CCN(CC)CCCN(C)C(=O)Cn1nc(Cc2ccncc2)c2ccccc2c1=O
  VACV Venus inh: -9%	Vaccinia mCherry: i

CCOC(=O)c1ccc(NC(=O)CN(Cc2ccc(C)cc2)S(=O)(=O)c2ccc(C)cc2)cc1
  VACV Venus inh: -13%	Vaccinia mCherry: -10%

c1cncc(Nc2c3ccccc3nc3ccccc23)c1
  VACV Venus inh: u	Vaccinia mCherry: -25%

Later entries:
SMILES	VACV Venus inh	Vaccinia mCherry
C/C(=N\NC(=O)c1nnn(-c2nonc2N)c1-c1cccs1)c1ccc(C)cc1	-19%	-4%
COc1cc(OC)cc(-c2nc3nc(C)c(CCC(=O)O)c(C)n3n2)c1	-2%	-4%
CC(=O)Nc1ccc(N2CCCC(C)C2)c([N+](=O)[O-])c1 (configuration not stated)	-16%	u
C[C@H](CO)N1C[C@H](C)[C@H](CN(C)C(=O)Nc2ccc(F)cc2)Oc2c(NC(=O)c3ccc(-c4nccs4)cc3)cccc2C1=O	u	i
Cn1cc(-c2coc3c(C(=O)Nc4ccccc4)cccc23)cn1	-7%	i
CC(C)(C)OC(=O)C1=C(CO)CS[C@@H]2[C@H](NC(=O)Cc3ccccc3)C(=O)N12	-12%	i
CC(C)C(OC(=O)CCCC(=O)Nc1nccs1)C(=O)NC1CCCCC1 (configuration not stated)	-12%	i
O=S(=O)(c1ccc(-c2ccon2)s1)N1CCN(c2ccccn2)CC1	-8%	i
O=C(CCS(=O)(=O)c1ccccc1)Nc1nncs1	u	u
COc1cc(C(=O)Nc2ccc(O)cc2C(=O)O)ccc1OC(C)=O	-11%	-7%
COc1ccccc1NC(=O)Nc1ccc(Cc2ccncc2)cc1	-8%	-16%
C=CCNC(=O)c1ccccc1NC(=O)c1ccc(Cl)c(S(=O)(=O)Nc2cccc(C)c2C)c1	u	-11%
CCOc1ccccc1NC(=O)CCS(=O)(=O)c1ccc(Br)cc1	-4%	-22%
O=C(NC1CC1)c1sc2ccccc2c1Cl	-2%	-14%
CN(C)CCN1CCN(C(c2ccnc3ccccc23)c2nnnn2-c2ccc3c(c2)OCCO3)CC1 (configuration not stated)	-7%	-21%
